Source: PubChem BioAssay (several laboratories)
CBX7 inh – blocks human CBX7 binding to H3K27me3 peptide | normalised signal (fraction of DMSO) (test concentration not listed) | hit rate 1.1% among 66,000 | O95931 | AlphaScreen His6-CBX7 / biotin-H3K27me3 peptide binding; stronger effect = lower value; in the data active = normalised signal below about 0.5;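 note: 100 nL library stock added to about 20 µL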
Target sequence (O95931 whole entry, looked up): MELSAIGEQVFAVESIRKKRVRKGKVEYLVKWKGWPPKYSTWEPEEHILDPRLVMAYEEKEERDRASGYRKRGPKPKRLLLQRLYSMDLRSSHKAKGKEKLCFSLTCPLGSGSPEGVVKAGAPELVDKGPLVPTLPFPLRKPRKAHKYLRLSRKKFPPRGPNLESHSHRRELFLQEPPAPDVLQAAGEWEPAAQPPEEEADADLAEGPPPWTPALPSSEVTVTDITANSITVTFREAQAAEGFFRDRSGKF
CBX7 inh z-score – further read-out of CBX7 inh, marked with its call; z-score; measured here: z-score of CBX7 signal; some inactives read as strong as hits; reference of the scale not given here;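 same signal on another scale; lower means less binding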
* = called active by the depositor.

SMILES	CBX7 inh	CBX7 inh z-score
Cc1ccc(-n2ncc(C(=O)Nc3cccc(C(F)(F)F)c3)c2C2CCNCC2)cc1C	0.92	-1.6
COc1ccc(-c2nc(CN3CCC(C(=O)NCc4ccc(Cl)cc4)CC3)c(C)o2)cc1OC	1.1	2
CCOc1ccccc1C(=O)Nc1ccc2nc(N3CCOCC3)cc(C)c2c1	1	2
Cn1c2ccccc2c2c(C(=O)NCC3COc4ccccc4O3)cn(C3CCCC3)c(=O)c21 (stereo not drawn)	1.1	3.4
COc1ccc(CCNC(=O)c2cnc3scc(C)n3c2=O)cc1	1	-0.085
CCOC(=O)C1=C(C)N=C2SC=C(c3ccccc3)N2C1c1ccccc1 (stereo not drawn)	1	0.38
c1ccc(-c2csc(Nc3ccccn3)n2)cc1	0.97	-0.69
Cc1ccc(S(=O)(=O)CCc2nnc(NC(=O)c3ccccc3Cl)s2)cc1	1.1	0.35
COc1ccc(Cl)cc1S(=O)(=O)NCCc1c(C)[nH]c2c(C)cccc12	0.87	-2.9
Cc1ccc(Cc2c(C)nc3c(C(=O)NCCc4ccc(Cl)cc4)c[nH]n3c2=O)cc1	0.94	-1.4
CCC1=Nc2cc(C(=O)N3CCN(c4cccc(C)c4)C(C)C3)ccc2Sc2ccccc21 (stereo not drawn)	0.72	-0.65
Cc1ccc(-c2nn(CCC(=O)N3CCN(C)CC3)c(=O)c3ccccc23)cc1	1	0.8
CCCOc1ccccc1C1CC(=O)C2=C(C1)Nc1ccccc1NC2c1ccc(OC)cc1 (stereo not drawn)	0.88	-3.4
CCCCOc1ccc(NC(=O)Nc2cc(F)c(F)cc2Cl)cc1	1.1	1.7
Cc1ccc(NC(=O)Nc2ccc3snnc3c2)cc1	1	2
Cc1cccc(NCc2nc(-c3ccccc3)no2)c1	1.2	2
O=c1oc2ccc3ccccc3c2cc1-c1nnc(Nc2cccc(F)c2)s1	0.97	-0.55
CCOc1ccc(NS(=O)(=O)c2ccc3[nH]cc(C(=O)NCCCOC)c(=O)c3c2)cc1	0.89	-2
CCOc1ccc(OCC)c(NC(=O)CN(C)S(=O)(=O)c2ccc3nc(C)sc3c2)c1	0.86	-0.8
O=C(c1ccccc1)c1ccc2nc(Cc3ccccc3Br)c(=O)[nH]c2c1	0.71	-7.1
Cc1ccc(NC(=O)Cn2cc(S(=O)(=O)c3ccc(C)cc3)c(=O)c3ccccc32)cc1	1	0.29
CCOC(=O)c1ccc2nc(NC(=O)C34CC5CC(CC(C5)C3)C4)sc2c1	1.1	1.2
COc1cccc(N2C(=O)C(CC(=O)Nc3ccc(Cl)cc3)N(Cc3ccc(F)cc3)C2=O)c1 (stereo not drawn)	1	1.4
Cc1cccn2cc(-c3ccc(NC(=O)C(C)C)cc3)nc12	0.96	-1.6
CCN(CC)C(=O)c1ccc2c(c1)N(CC)C(=O)c1ccccc1S2(=O)=O	0.99	-0.15

Nothing new here: 14 of the compounds above.
SMILES	CBX7 inh	CBX7 inh z-score
Cc1ccc(-c2nn(CCC(=O)N3CCN(C)CC3)c(=O)c3ccccc23)cc1	1	0.8
CCCOc1ccccc1C1CC(=O)C2=C(C1)Nc1ccccc1NC2c1ccc(OC)cc1 (stereo not drawn)	0.88	-3.4
CCCCOc1ccc(NC(=O)Nc2cc(F)c(F)cc2Cl)cc1	1.1	1.7
Cc1ccc(NC(=O)Nc2ccc3snnc3c2)cc1	1	2
Cc1cccc(NCc2nc(-c3ccccc3)no2)c1	1.2	2
O=c1oc2ccc3ccccc3c2cc1-c1nnc(Nc2cccc(F)c2)s1	0.97	-0.55
CCOc1ccc(NS(=O)(=O)c2ccc3[nH]cc(C(=O)NCCCOC)c(=O)c3c2)cc1	0.89	-2
CCOc1ccc(OCC)c(NC(=O)CN(C)S(=O)(=O)c2ccc3nc(C)sc3c2)c1	0.86	-0.8
O=C(c1ccccc1)c1ccc2nc(Cc3ccccc3Br)c(=O)[nH]c2c1	0.71	-7.1
Cc1ccc(NC(=O)Cn2cc(S(=O)(=O)c3ccc(C)cc3)c(=O)c3ccccc32)cc1	1	0.29
CCOC(=O)c1ccc2nc(NC(=O)C34CC5CC(CC(C5)C3)C4)sc2c1	1.1	1.2
COc1cccc(N2C(=O)C(CC(=O)Nc3ccc(Cl)cc3)N(Cc3ccc(F)cc3)C2=O)c1 (stereo not drawn)	1	1.4
Cc1cccn2cc(-c3ccc(NC(=O)C(C)C)cc3)nc12	0.96	-1.6
CCN(CC)C(=O)c1ccc2c(c1)N(CC)C(=O)c1ccccc1S2(=O)=O	0.99	-0.15

Remaining list, next part:
SMILES	CBX7 inh	CBX7 inh z-score
CCC1CCCCN1CCCNC(=O)C1CCC(=O)N1Cc1ccc(C)cc1 (stereo not drawn)	1	0.31
CCN(c1cccc(C)c1)S(=O)(=O)c1ccc2[nH]cc(C(=O)NCCc3ccccc3)c(=O)c2c1	0.96	-1.2
Cc1cccc(CN2C(=O)CSc3ccc(C(=O)NCCN4CCOCC4)cc32)c1	0.99	-0.48
Cc1ccc(CN(Cc2ccccn2)C(=O)Nc2ccc(C)c(C)c2)cc1	0.74	-0.26
Cc1oc(-c2ccc(Cl)cc2)nc1CN1CCC(C(=O)NC2CCCc3ccccc32)CC1 (stereo not drawn)	1.1	0.84
CS(=O)(=O)c1ccc2nc(NC(=O)CN3C(=O)CCC3=O)sc2c1	1.1	0.83
Cc1cccc(NC(=O)CSc2nccn2-c2cccc(C)c2)c1	0.82	-0.18
O=C(CC1SCCNC1=O)Nc1ccc(Cl)cc1 (stereo not drawn)	1	0.13
COc1cccc(-n2nc(C(=O)Nc3ccc(F)cc3F)c3ccccc3c2=O)c1	1	0.67
COCCNC(=O)CN1CCN(Cc2ccccc2F)C1=O	0.9	-1.4
Cc1cccc(Nc2nc3ccccc3nc2-n2nc(C)cc2C)c1	2.6	32
O=C(NCCC1=CCCCC1)c1ccc(CNc2c(NC3CCCC3)c(=O)c2=O)cc1	1.1	1.1
COc1cc2[nH]c(=O)n(CCC(=O)NCc3ccc4c(c3)OCO4)c(=O)c2cc1OC	0.98	-0.51
Cc1ccccc1-c1nc(CS(=O)(=O)CC(=O)N(C)Cc2ccccc2)c(C)o1	1	0.84
CCN(CC)S(=O)(=O)c1ccc(NC(=O)c2c(-c3ccccc3)noc2C)cc1	1	0.16
Nc1c(C(=O)NCCc2ccccc2)nnn1Cc1ccc(Cl)cc1	1	0.038
CCCN(CCC)C(=O)Cn1cnc2scc(-c3ccccc3)c2c1=O	0.99	-0.26
Cc1nn(C)c(C)c1S(=O)(=O)N(CC(=O)N1CCC(C)CC1)c1ccc(C(C)C)cc1	0.98	-0.38
COc1ccc(NC(=O)CSc2nnc(CNC(=O)c3c(F)cccc3Cl)o2)cc1	1	1.8
Cc1ccc(N2C(=O)CC(c3cccs3)C3=C2CCCC3=O)cc1 (stereo not drawn)	1.5	4.3
CC(C)NC(=O)CN1C(=O)CSc2ccc(S(=O)(=O)N3CCOCC3)cc21	0.86	-1.6
N#Cc1nc(-c2ccccc2F)oc1NC1CCCCC1	0.99	-0.15
COc1cc(C(O)c2nc3ccccc3n2C(C)C)cc(OC)c1OC (stereo not drawn)	0.97	-0.96
CC(C)NC(=O)c1cc2c(s1)-c1ccccc1OC2	1.1	6.1
CCCCN1C(=O)c2ccccc2C1C(=O)NC1CCCC1 (stereo not drawn)	1	0.47
(cont.)
SMILES	CBX7 inh	CBX7 inh z-score
Cc1sc2ncn(CC(=O)Nc3ccccc3F)c(=O)c2c1C	1.1	1.5
CCOc1ccc(-c2[nH]ncc2-c2ccccc2)c(O)c1	0.73	-4.1
O=C(NCc1ccc2c(c1)OCO2)C1CC(=O)N(C2CCCCC2)C1 (stereo not drawn)	1	0.54
Cc1ccc(CSc2nc3ccncc3n2Cc2ccc(C)cc2)cc1	0.8	-2.9
Cc1onc(-c2ccccc2)c1C(=O)Nc1sc2c(c1C#N)CCCC2	1.4	0.86
COC(=O)Cc1nc(N2CCN(Cc3ccccc3)CC2)c2c(C)c(C)sc2n1	0.7	-0.52
O=C(Nc1ccc(F)c(Cl)c1)c1cn(-c2ccc(F)cc2F)c(=O)c2ccccc12	0.96	-0.61
CCN(Cc1ccccc1)C(=O)Cc1c(C(=O)O)[nH]c2ccccc12	1	0.58
CCCCCn1c(CN2CCN(c3ccc(OC)cc3)CC2)nc2c1c(=O)[nH]c(=O)n2C	1	0.35
CCCCCCOc1ccc(N2C(=O)CC(NCCc3ccc(OC)cc3)C2=O)cc1 (stereo not drawn)	1.1	2.9
Cc1ccccc1NC(=O)c1ccccc1NC(=O)c1ccccc1Cl	1	0.74
Cc1ccc(O)c(NC(=O)c2cccc(S(=O)(=O)N3CCCC3)c2)c1	0.92	-2.1
Cc1cc(C(=O)N2CCN(Cc3ccc4c(c3)OCO4)CC2)on1	1.1	2.2
CCCCCn1c(=O)[nH]c2cc(C(=O)NCCc3ccc(Cl)cc3)ccc2c1=O	1	0.27
Cc1ccccc1NC(=O)C1c2ccccc2C(=O)N2CCc3ccccc3C12 (stereo not drawn)	0.97	-0.041
CCN(CCNC(=O)c1cc(Nc2ccc(OC)c(OC)c2)nc2ccccc12)c1ccccc1	0.65	-4.2
Cc1cccc(NC(=O)c2cc(S(=O)(=O)N3CCCCC3)ccc2F)c1	0.85	-1.6
CC(=O)N1CCc2cc(S(=O)(=O)NC(Cc3ccccc3)C(=O)NCc3ccc(C)cc3)ccc21 (stereo not drawn)	0.89	-2
COc1ccc(NC(=O)c2c(NC(=O)CCC(=O)O)sc(-c3ccccc3)c2C)cc1	0.96	-0.9
COc1ccc(-c2cc(C(F)(F)F)nc(NC(C)c3ccccc3)n2)cc1 (stereo not drawn)	1.4	14
CN(C)c1ccc(C(=O)Nc2ccccc2-c2nc3ccccc3s2)cc1	1.2	3.7
COC(=O)c1cc2oc(C)cc2n1CC(=O)Nc1ccc(C)c(F)c1	0.96	-1.1
Cc1ccc(Nc2c(-c3c[nH]c4ccccc34)nc3cccc(C)n23)cc1	0.87	-4.7
COc1ccc(OCC(O)CN2CCN(c3ccccc3F)CC2)c(C(C)(C)C)c1 (stereo not drawn)	1.1	0.98
O=C(c1cnn(-c2ccccc2)c1-n1cccc1)N1CCCC(C(=O)N2CCOCC2)C1 (stereo not drawn)	1.2	1.3
New compounds follow.
SMILES	CBX7 inh	CBX7 inh z-score
O=C(c1ccc2c(c1)N(Cc1ccccc1F)C(=O)CS2)N1CCCC1	1.2	2.4
Cc1ccc(NC(=O)c2cc(-c3ccccc3)nc3ccc(Cl)cc23)cc1	1.1	2.1
COc1ccccc1NC(=O)c1ccc2c(c1)C(=O)N(c1cc(C)on1)C2=O	0.96	-0.99
COc1ccc2c(c1)Cc1sc(NC(=O)c3ccc(Cl)cc3)nc1-2	1	0.7
C(=C\c1nc2ccccc2n1CCCOc1ccccc1)/c1ccccc1	1	0.24
Cc1ccc(-c2nc3ccccc3s2)cc1NC(=O)c1ccccc1F	1	0.34
CCn1c(C(=O)N2CCCC(C(=O)O)C2)cc2sccc21 (stereo not drawn)	1	0.13
O=C(NC1CCCCCC1)C1CCN(S(=O)(=O)c2cccnc2)CC1	0.99	-0.43
CCn1cnc2cc(NCc3ccc(C)cc3)ccc21	0.52	-14
O=C(Nc1ccc2oc(-c3ccccc3Br)nc2c1)c1cc(Br)ccc1Cl	1.1	1.6
CCc1cccc(NC(=O)C2CCC(CNS(=O)(=O)c3cccc4cccnc34)CC2)c1 (stereo not drawn)	1	1
CCOC(=O)c1c(C)n(C)c2ccc(OCC(O)CN3CCOCC3)cc12 (stereo not drawn)	1	1.5
CCOc1ccc2nc(NC(=O)c3ccccc3)sc2c1	1.1	1.8
CCCCN(CCCC)S(=O)(=O)c1ccc2oc(C(=O)Nc3ccc(F)c(F)c3)c(C)c2c1	1.1	5.8
Cc1cc(N2CCC(C)CC2)nc2ccc(NC(=O)C3CCCCC3)cc12	1.2	2
CC1(C)CC(=O)c2cnc(NC3CCCC3)nc2C1	1.2	2.8
COc1ccc(CNC(=O)CCNC(=O)Cn2ccc3ccccc3c2=O)cc1	1	0.75
CCCOc1ccc(N2C(=O)CC(NCC(N)=O)C2=O)cc1 (stereo not drawn)	0.97	-0.29
Cc1onc(-c2c(Cl)cccc2Cl)c1C(=O)N1CCN(Cc2ccccc2)CC1	0.97	-0.64
CC1=C(C#N)C(c2ccccc2OCc2ccccc2)C2=C(CCCC2=O)N1 (stereo not drawn)	1.1	1.3
Cn1c(NC(=O)c2ccccc2Cl)nc2ccccc21	0.81	-1.8
Cc1ccccc1OCCCCn1c(CCCO)nc2ccccc21	0.95	-0.76
O=C(CCn1c(=O)[nH]c2ccccc2c1=O)N1CCN(c2ccc(Cl)cc2)CC1	1.1	0.18
COC(=O)CNC(=O)c1sc2ncn(CC(=O)Nc3ccccc3OC)c(=O)c2c1C	1.3	2.9
O=C(Cn1cc(S(=O)(=O)c2ccccc2)c(=O)c2cc(F)ccc21)Nc1ccc2c(c1)OCO2	0.93	-2.4
Continuation.
SMILES	CBX7 inh	CBX7 inh z-score
Cc1cccc2c1-c1sc(C(=O)N(Cc3ccccc3)C(C)C)cc1CO2	1.6	16
CCc1ccc(-c2nc3ccccc3c(C(=O)O)c2C)cc1	1.1	1.8
CC1CCN(S(=O)(=O)c2c[nH]c(=O)c3ccccc23)CC1	0.93	-0.076
Cc1cccc(-c2noc(-c3ccc(F)cc3)n2)c1	1.2	6.3
COc1ccc(CCNC(=O)c2cc3c(s2)-c2c(C)cccc2OC3)c(OC)c1	1.5	14
O=c1[nH]c(-c2ccc(Br)cc2)cn1-c1ccc(Cl)cc1	1	-0.087
C=C(C)Cn1c(C2CC(=O)N(c3cc(C)cc(C)c3)C2)nc2ccccc21 (stereo not drawn)	1.2	0.91
CC(C)c1ccc(NC(=O)C(=O)NCc2ccncc2)cc1	1	0.39
Clc1cccc(-c2ccc(-c3nc(-c4ccccc4)c(-c4ccccc4)[nH]3)o2)c1	0.67	-8.3
CN1CCN(c2oc(-c3ccc(F)cc3)nc2C#N)CC1	0.99	-0.16
COc1ccc(C2NC(=O)c3[nH]nc(-c4ccccc4)c32)cc1 (stereo not drawn)	1.1	1
CCC(C)NC(=O)CNC(=O)Cn1c(C)cc2ccccc2c1=O (stereo not drawn)	1.2	1.9
Cc1cc(N2CCC(C(=O)O)CC2)n2nc(C)c(-c3ccc(Cl)cc3)c2n1	1	1.7
CNS(=O)(=O)c1cc(-c2n[nH]c(=O)c3ccccc23)ccc1C	1	0.97

An excerpt; count on the stated rates, not on these rows.
